Screens: PubChem BioAssay, several laboratories
CBX7 AlphaScr – CBX7 inhibition, primary AlphaScreen; O95931; AlphaScreen His6-CBX7 / biotin-H3K27me3 peptide binding; stronger effect = lower value; normalised signal (fraction of DMSO) (concentration not given with the values); 66,000 tested, 1.1% active; AID 1224903; in the data active = normalised signal below about 0.5;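 note: 100 nL library stock added to about 20 µL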
Target sequence (O95931 whole entry, looked up): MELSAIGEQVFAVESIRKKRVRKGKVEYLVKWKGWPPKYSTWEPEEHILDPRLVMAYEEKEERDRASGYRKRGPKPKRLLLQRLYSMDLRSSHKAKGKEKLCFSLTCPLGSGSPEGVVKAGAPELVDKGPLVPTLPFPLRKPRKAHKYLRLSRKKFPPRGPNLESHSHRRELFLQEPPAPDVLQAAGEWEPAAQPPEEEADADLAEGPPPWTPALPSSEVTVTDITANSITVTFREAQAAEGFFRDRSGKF
CBX7 AlphaScr z-score – second read-out of CBX7 AlphaScr, no call of its own (marks repeat the call); z-score; measured here: z-score of CBX7 signal; some inactives read as strong as hits; reference of the scale not given here;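 same signal on another scale; lower means less binding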
* marks the source's active call; other numbers are inactive results. A portion of the library; the hit share may differ from the screen's.

SMILES	CBX7 AlphaScr	CBX7 AlphaScr z-score
O=C1c2ccccc2C(Nc2ccc(F)cc2F)N1c1ccccn1 (stereo not given)	1.1	3
O=C(Nc1ccc(OCc2ccccc2)cc1)C12CC3CC(C1)CC(n1cncn1)(C3)C2	1.1	1.1
CCCNC(=O)CS(=O)(=O)Cc1nc(-c2ccc(C)cc2)oc1C	1	0.061
COc1ccc(NC(=O)c2cn(C)c(=O)c3cc(OC)c(OC)cc23)cc1OC	1.2	3.4
CCCCCc1ccc(-c2ccc(C#N)cc2)nc1	1.1	1.7
Cc1ccc(NC(=O)CCc2nc3ccccc3[nH]2)cc1F	0.98	-0.53
COc1ccc(Nc2c3c(nc4cc(Cl)ccc24)CCCC3)cc1OC	0.77	-3.5
CCCCNC(=O)c1cn(CC(C)C)c(=O)c2cc(OC)c(OC)cc12	1.1	1.2
O=C(NC1CCN(Cc2ccccc2)CC1)c1cccc2c1C(=O)N(C1CCCCC1)C2	0.85	-2.8
COc1cccc(-c2cc(C(=O)N3CC4(C)CC3CC(C)(C)C4)no2)c1 (stereo not given)	1.1	0.7
CCn1c(NCc2ccccc2NS(=O)(=O)c2ccc(C)cc2)nc2ccccc21	0.89	-0.24
Cc1cc(C)n(CC(O)COc2ccccc2Br)n1 (stereo not given)	1	0.22
O=C(Cc1c(C(=O)O)[nH]c2ccc(Cl)cc12)NC1CCCCCC1	1	1.4
CCOc1ccc2nc(C)cc(Nc3cccc(C(=O)OC)c3)c2c1	1.2	2
Cc1ccc(NC(=O)CN(c2ccc(C(C)C)cc2)S(=O)(=O)c2c(C)nn(C)c2C)cc1Cl	1	0.14
COCC(C)NC(=O)C1CC(c2cccc(OC)c2)=NO1 (stereo not given)	0.96	-0.49
CCCOc1ccccc1NC(=O)c1ccc(NC(=O)c2c(-c3ccccc3Cl)noc2C)cc1	1	-0.075
CCCCNC(=O)CSc1nc2nc(C)c(Cc3ccccc3)c(C)n2n1	0.97	-0.27
CCN(CC)c1ccc(NC(=O)CC2Oc3ccccc3NC2=O)c(C)c1 (stereo not given)	0.94	-0.37
O=C1CC(c2ccccc2F)c2cc3c(cc2N1)CCC3 (stereo not given)	1	-0.065
CCOC(=O)N1CCC(Nc2c(NCCN3CCCCC3C)c(=O)c2=O)CC1 (stereo not given)	0.93	-0.78
CC(=O)Nc1nonc1-c1nc2ccccc2n1Cc1cccc(Br)c1	1	1.5
COc1cc(NS(=O)(=O)c2ccc(Nc3nc(-c4ccc(C)cc4)cs3)cc2)nc(OC)n1	0.99	-0.21
Cc1ccc(-c2nc3cc(NC(=O)c4cccnc4)ccc3o2)cc1Cl	1	0.064
CCOCCCNC(=O)c1ccc2c(c1)N(CC)C(=O)c1ccccc1S2=O (stereo not given)	1.1	2.2
O=C(c1ccc2c(c1)N(Cc1ccc(F)cc1)C(=O)c1ccccc1S2=O)N1CCOCC1 (stereo not given)	1	1.8
Cc1cc(Nc2ccc(F)cc2C)n2ncnc2n1	1	0.88
COc1ccc(Cl)cc1C(=O)NCCc1cc2cc(C)c(C)cc2[nH]c1=O	1.1	2.9
Clc1cccc(CNc2nnc(Cc3ccncc3)c3ccccc23)c1	1	1.2
Cc1ccc(CCNC(=O)c2ccc3c(c2)N(Cc2ccccc2C)C(=O)c2ccccc2S3)cc1	0.97	-1.1
COc1cccc(NC(=O)CCCNC(=O)Cn2cnc3sc(C)c(C)c3c2=O)c1	0.73	-3.1
Cc1ccc(-c2nc(S(=O)(=O)c3ccc(Cl)cc3)c(SCC(N)=O)o2)cc1	0.97	-0.22
COC(=O)c1c[nH]n2c(NC3CCCCCC3)c(-c3ccc(C)cc3)nc12	0.43*	-11*
COc1cc(CNc2ccc3[nH]c(=O)[nH]c3c2)cc(Cl)c1OCC(=O)NC(C)(C)C	0.84	-4.3
CCCC1=Nc2cc(C(=O)NC)ccc2Sc2ccc(C)cc21	0.83	-2.4
CN(Cc1ccccc1)C(C(=O)Nc1ccc2c(c1)OCO2)c1ccccc1 (stereo not given)	0.85	-0.93
COc1ccccc1CNC(=O)CN1C(=O)CC(C)(C)S(=O)(=O)c2ccccc21	0.99	-0.26
CCOC(=O)c1oc2ccccc2c1NC(=O)c1ccccc1F	1.1	4.3
CC(=O)NCc1nc2ccccc2n1Cc1c(F)cccc1Cl	0.78	-3.4
Cc1ccc(-n2c3c(cc(C(=O)Nc4cccc(C)n4)c2=O)C(=O)CC(C)(C)C3)cc1	0.95	-0.52

Ordered by molar mass (descending): some entries from above
SMILES	CBX7 AlphaScr	CBX7 AlphaScr z-score
Cc1ccc(CCNC(=O)c2ccc3c(c2)N(Cc2ccccc2C)C(=O)c2ccccc2S3)cc1	0.97	-1.1
COc1cc(NS(=O)(=O)c2ccc(Nc3nc(-c4ccc(C)cc4)cs3)cc2)nc(OC)n1	0.99	-0.21
COc1cc(CNc2ccc3[nH]c(=O)[nH]c3c2)cc(Cl)c1OCC(=O)NC(C)(C)C	0.84	-4.3
Cc1ccc(-c2nc(S(=O)(=O)c3ccc(Cl)cc3)c(SCC(N)=O)o2)cc1	0.97	-0.22
COc1ccccc1CNC(=O)CN1C(=O)CC(C)(C)S(=O)(=O)c2ccccc21	0.99	-0.26
CCOCCCNC(=O)c1ccc2c(c1)N(CC)C(=O)c1ccccc1S2=O (stereo not given)	1.1	2.2
CCOC(=O)N1CCC(Nc2c(NCCN3CCCCC3C)c(=O)c2=O)CC1 (stereo not given)	0.93	-0.78
COc1ccc(Cl)cc1C(=O)NCCc1cc2cc(C)c(C)cc2[nH]c1=O	1.1	2.9
CN(Cc1ccccc1)C(C(=O)Nc1ccc2c(c1)OCO2)c1ccccc1 (stereo not given)	0.85	-0.93
COC(=O)c1c[nH]n2c(NC3CCCCCC3)c(-c3ccc(C)cc3)nc12	0.43*	-11*
Cc1ccc(-c2nc3cc(NC(=O)c4cccnc4)ccc3o2)cc1Cl	1	0.064
Clc1cccc(CNc2nnc(Cc3ccncc3)c3ccccc23)c1	1	1.2
CC(=O)NCc1nc2ccccc2n1Cc1c(F)cccc1Cl	0.78	-3.4
CCOC(=O)c1oc2ccccc2c1NC(=O)c1ccccc1F	1.1	4.3
CCCC1=Nc2cc(C(=O)NC)ccc2Sc2ccc(C)cc21	0.83	-2.4
Cc1cc(Nc2ccc(F)cc2C)n2ncnc2n1	1	0.88

Remaining list, next part.
SMILES	CBX7 AlphaScr	CBX7 AlphaScr z-score
CC(NC(=O)c1cc2c(s1)-c1ccccc1OC2)c1ccc2c(c1)OCCO2 (stereo not given)	1.3	6.7
O=C(Nc1nc(-c2ccncc2)cs1)c1ccc(S(=O)(=O)N2CCc3ccccc3C2)cc1	1	0.31
O=C(Nc1ccc2[nH]c(=O)[nH]c2c1)c1ncn[nH]1	0.39*	-16*
Oc1cccc2ccc(Nc3ccccn3)nc12	0.0087*	-11*
Cc1ccccc1Cc1c(C)nc2c(C(=O)NCCN3CCOCC3)cnn2c1C	0.78	-2.3
COc1cc2c(cc1OC)C1C(C(=O)NCc3cccnc3)c3ccccc3C(=O)N1CC2 (stereo not given)	1	0.63
Cc1ccc(C)c(N2CCN(C(=O)C3CCN(c4nc5ccccc5[nH]4)CC3)CC2)c1	1.1	0.82
COc1ccc(Nc2cc(C(=O)NCCCN3CC(C)CC(C)C3)c3ccccc3n2)c(OC)c1 (stereo not given)	0.81	-2.9
COc1cc(OC)c(NC2c3ccccc3C(=O)N2Cc2ccccc2)cc1Cl (stereo not given)	0.7	-4.2
O=C(NCCc1ccccc1)C1CCN(S(=O)(=O)c2cnc[nH]2)CC1	0.94	-0.81
CCOC(CNC(=O)C1CCN(Cc2nc(-c3ccccc3C)oc2C)CC1)OCC	1.3	2.4
O=C(c1ccc(Cl)cc1)N1CCCCC(Sc2nnc3ccccn23)C1=O (stereo not given)	0.94	-0.45
O=C(NCc1c(F)cc(F)cc1F)c1ccc2c(c1)N(Cc1ccccc1)C(=O)CS2	0.78	-0.87
C/C(=C\c1ccccc1)Cc1nc2ccccc2[nH]c1=O	1.1	4.1
O=C(Nc1c2c(nn1-c1ccc(F)cc1)CSC2)c1ccc(F)cc1	1.1	1
COc1ccc(-c2noc(-c3ccc4c(c3)OCO4)n2)cc1	1.1	1.7
O=C1CCCC2=C1C(c1cccc(Cl)c1)Nc1ccc(C(=O)c3ccccc3)cc1N2 (stereo not given)	0.96	-2
COc1ccc(-c2nc(Nc3ccc(C)c(Cl)c3)c3ccccc3n2)cc1OC	1.1	2
CCN1CCN(c2cc(C)c3cc(NC(=O)C4CCCCC4)ccc3n2)CC1	1.3	3
Cc1noc(C(=O)N2CCN(C(c3ccccc3)c3ccccc3)CC2)c1Cl	1	0.087
CC1(C)CC(=O)C2=C(C1)Nc1ccccc1NC2c1c[nH]c2ccccc12 (stereo not given)	0.85	-1.8
Cc1ccc(-c2nn(C)c(=O)c3ccccc23)cc1S(=O)(=O)NCCCO	1.1	0.21
COc1ccccc1-c1cc(C(=O)Nc2sc3c(c2C(N)=O)CCCC3)no1	1.2	1.2
COc1ccc(-c2cc(-c3ccccc3O)[nH]n2)cc1OC	0.81	-7.8
O=C(CSc1nccn1-c1ccc(F)cc1)Nc1ccc(F)cc1F	1.1	0.96
CCOC(=O)c1c(-c2ccc(OC)cc2)csc1NC(=O)CN1CC(C)OC(C)C1 (stereo not given)	0.97	-0.63
COc1ccccc1NC(=O)c1c(NCc2cccnc2)sc2c1CCCC2	0.64	-5.1
COc1ccc(-n2c(/C=C/c3c(C)n(C)c4ccccc34)nc3ccccc3c2=O)cc1	0.98	-0.66
O=C(NCCc1ccccc1)c1cc(=O)[nH]c2ccc(S(=O)(=O)N3CCCCCC3)cc12	1	0.57
Cc1cc(Nc2ccc3c(c2)OCCO3)c2cc(Cl)ccc2n1	1.4	1.3
COc1ccc2c(c1)c(=O)c(S(=O)(=O)c1ccccc1)cn2Cc1ccccc1C	0.91	-1.7
Cc1cc2nc(-c3ccc(NC(=O)c4cccnc4)cc3)oc2cc1C	0.99	-0.39
Cc1cc(C)cc(NC(=O)CC(C)CC2=NS(=O)(=O)c3ccccc3N2)c1 (stereo not given)	1.2	1.7
Cc1ccc(-n2ncc3c(NCCCN4CCOCC4)ncnc32)c(C)c1	0.97	-0.9
CCOc1ccc(CCNC(=O)c2cc3c(C)nccc3[nH]c2=O)cc1OCC	0.93	-0.44
O=C(NCCc1nc2ccccc2[nH]1)c1ccccc1Cl	0.96	-0.37
Cc1ccccc1Cn1cc(NC(=O)c2cc(-c3ccc(Cl)cc3)on2)cn1	1.2	3.3
CN(CCCNC(=O)c1cc2c(-c3ccc(Cl)cc3)nn(C)c2s1)Cc1ccccc1	1.2	0.7
CCc1cccc(NC(=O)C(Cc2ccccc2)NS(=O)(=O)c2ccc3c(c2)CCN3C(C)=O)c1 (stereo not given)	1	2
COc1ccccc1Nc1nc(-c2ccc(I)cc2)cs1	1	0.66
CC1CCC(NC(=O)CCNS(=O)(=O)c2ccc3c(c2)CCC(=O)N3)CC1 (stereo not given)	1.1	2.3
O=C(CSc1nccn1-c1ccc(Cl)cc1)NCc1ccc(F)cc1	0.55	-1.6
Cc1ccc(-c2nc3ccccc3c(=O)n2CCCn2ccnc2)cc1	1	0.46
COc1ccc(-c2nc(CS(=O)(=O)CC(=O)NCCc3ccc(Cl)cc3)c(C)o2)cc1	0.92	-0.63
Cc1ccc2c(c1)-c1c(cnn1CC(=O)Nc1ncccc1C)CO2	1.1	2.8
COc1ccc(N2CCN(C(=O)CCCn3c(=O)[nH]c4ccsc4c3=O)CC2)cc1	1	0.17
COc1ccc(S(=O)(=O)N2Cc3ccccc3CC2C(=O)N2CCOCC2)cc1OC (stereo not given)	1	0.32
CC(C)(C)c1ccc(C2CC(=O)c3cnc(NCc4ccccc4)nc3C2)cc1 (stereo not given)	0.91	-1
Cc1cc2cc(CCN3C(=O)c4ccccc4C3=O)c(=O)[nH]c2cc1C	0.96	-0.72
COc1ccc(Nc2cc(C(=O)NCCCN(CC(C)C)CC(C)C)c3ccccc3n2)cc1OC	0.85	-1.8
COc1ccc(CCC(=O)Nc2ccc(-c3noc(-c4ccc(F)cc4)n3)cc2)cc1	0.96	-2
Cc1cccc(C(=O)N2CC(=O)Nc3ccc(Cl)cc3C2c2ccc(F)cc2)c1 (stereo not given)	0.93	-1.7
CCOC(=O)c1nnn(-c2nonc2N)c1CN1CCSCC1	0.86	-0.53
CCc1ccc(-c2nc(CN3CCC(C(=O)NCCCN4CCOCC4)CC3)c(C)o2)cc1	1	0.003
CCOc1ccc(CCNC(=O)CCN2C(=O)c3ccccc3C2=O)cc1OCC	1.2	1.9
COc1ccc(NC(=O)C2CC(c3cc(OC)ccc3OC)=NO2)cc1 (stereo not given)	0.99	-0.29
Cc1ccc(Cl)cc1-n1c(CCC(=O)O)ccc1-c1cccs1	0.88	-2.2
CC(=O)N1CCc2cc(S(=O)(=O)NCCN3CCN(c4ccccc4)CC3)ccc21	1.1	0.94
CCc1ccc(C2=NN(CCC(=O)NCc3cccnc3)C(=O)CC2)cc1	1.1	1.5
CCCC1=Nc2cc(C(=O)NCc3ccc4c(c3)OCO4)ccc2Sc2ccc(C)cc21	0.98	-0.23
Following part.
SMILES	CBX7 AlphaScr	CBX7 AlphaScr z-score
O=C(CN1CCCCC1)Nc1c2c(nc3c1CCC3)CCCC2	0.45*	-7.4*
Cc1ccccc1C1(c2ccccc2C)CC1C(=O)Nc1ccc(Br)cc1 (stereo not given)	1.1	1.7
COc1cccc(-n2c(SCC(=O)Nc3ccc4c(c3)OCO4)nnc2-c2c[nH]c3ccccc23)c1	0.93	-0.48
CCCCc1c(O)nc(SCCC(=O)O)[nH]c1=O	1	0.89
CCC(=O)N1CCc2cc(S(=O)(=O)CCC(=O)N3CCCCC3)ccc21	0.99	-0.073
CCc1ccc(-c2ncnn2-c2cccc(Cl)c2C)cc1	2.3	25
Cc1cc(N2CCOCC2)nc2ccc(NC(=O)CCC(=O)N3CCCC3)cc12	1.1	0.089
CCCOc1ccc(N2C(=O)CC(N3CCN(c4ccccc4)CC3)C2=O)cc1 (stereo not given)	0.9	-1.6
CCc1nnc(NC(=O)CSc2nnc(CNC(=O)c3cccs3)o2)s1	0.85	-2.5
CC(C)CC(=O)Nc1c2c(nn1-c1ccc(F)cc1)CSC2	1	1.5
